D2 agonist = human D2 receptor agonism in beta-arrestin assay. DiscoveRx PathHunter D2 beta-arrestin, luminescence, 90 min; 100% = 57 uM dopamine signal. 360,000 tested, 0.084% active. AID 624465. activation, % (no concentration beside the values); in the data active = activation above about 40%; inconclusive = about 15% to 40%; inactive = below about 15%; further: compound concentration not given in the record; the text of the record calls up to 30% inactive
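Agonist mode: compounds alone added to overnight-plated D2 PathHunter cells for 90 min at 37 C, with 57 uM final dopamine (EC100) defining full response. Beta-arrestin recruitment detected by chemiluminescent reagent, read after 1 h at ambient temperature.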
gsp antagonist = antagonists of gsp mutant (McCune-Albright syndrome). gsp-mutant cells, cAMP HTRF, 30 min; control for the full effect not named in the record. Potency, µM (series often up to 76.9 µM), inactives show at the highest dose activity change, negative = inhibition, usual class: inhibitors. 340,000 tested, 0.4% active. AID 624288; active = falling curve of any shape with a large fitted effect; inconclusive = falling curve, mostly with a smaller effect; inactive = flat or rising curve; cell line not stated here;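 further: intracellular cAMP measured with PDE inhibitor Ro 20-1724 present during compound exposure; potency means the concentration at half of the fitted maximal effect; on the % scale 0 is the no-effect control and ±100 the full control effect; nearly all actives have a fitted effect of over 65% in size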
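G418-selected cells were plated in DMEM/10% FBS for 16-24 h at 37C, then treated with compounds plus the PDE inhibitor […] (300 uM solution added) for 30 min at 37C. Intracellular cAMP was measured by HTRF after 30 min lysis at room temperature.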
gsp ag = agonists of gsp mutant (McCune-Albright syndrome); gsp mutant cells, cAMP HTRF, 30 min; control for the full effect not named in the record; Potency, µM (top dose mostly 76.9 µM), for the others: top-dose activation (cAMP increase), actives largely listed as activators; 340,000 tested, 0.13% active; active = well fitted activation curve with a large enough effect; inconclusive = small, poorly fitted or top-dose-only effect, or another doubt; inactive = no such curve, though single readings can be large or run the other way; cell line not stated here;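 further: phosphodiesterase inhibitor Ro 20-1724 added with compounds to block cAMP breakdown; potency means the concentration at half of the fitted maximal effect; nearly all actives have a fitted effect of over 60% in size; about a fifth of the inactives were tested at one dose only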
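Cells in DMEM/10% FBS with G418 were pretreated with compounds in DMSO plus […] (300 uM stock) for 30 min at 37C. cAMP was measured by HTRF (cAMP-d2 plus anti-cAMP antibody-K) after 30 min at room temperature.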
CtBP-E1A blk = blocks the CtBP interaction with E1A; activity change, % (no concentration beside the values); 340,000 tested, 0.49% active; AlphaScreen GST-E1A/His-CtBP binding, 1536-well; active compounds read low; control for the full effect not named in the record; in the data active means activity change below about -65%; inconclusive means about -30% to -65%; inactive means above about -30%; further: on the % scale 0 is the no-effect control and ±100 the full control effect
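Protein mix (5X: 125 nM each GST-E1A, His-CtBP) was incubated with pinned compound 2 h at 37 deg C in dark, in 50 mM Tris pH 8.0 buffer with 300 mM NaCl. Glutathione donor and nickel acceptor beads followed; AlphaScreen signal read after 1 h.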
Six1-Eya2 inh = Six1/Eya2 interaction inhibition | activity change, % (test concentration not listed) | 360,000 tested, 0.56% active | AID 651725 | Q15475+O00167 | AlphaScreen GST-Six1/His-Eya2 binding, biochemical; active compounds read low; control for the full effect not named in the record; in the data active = activity change below about -65%; inconclusive = about -30% to -65%; inactive = above about -30%; further: on the % scale 0 is the no-effect control and ±100 the full control effect
Target sequence (O00167 whole entry, looked up): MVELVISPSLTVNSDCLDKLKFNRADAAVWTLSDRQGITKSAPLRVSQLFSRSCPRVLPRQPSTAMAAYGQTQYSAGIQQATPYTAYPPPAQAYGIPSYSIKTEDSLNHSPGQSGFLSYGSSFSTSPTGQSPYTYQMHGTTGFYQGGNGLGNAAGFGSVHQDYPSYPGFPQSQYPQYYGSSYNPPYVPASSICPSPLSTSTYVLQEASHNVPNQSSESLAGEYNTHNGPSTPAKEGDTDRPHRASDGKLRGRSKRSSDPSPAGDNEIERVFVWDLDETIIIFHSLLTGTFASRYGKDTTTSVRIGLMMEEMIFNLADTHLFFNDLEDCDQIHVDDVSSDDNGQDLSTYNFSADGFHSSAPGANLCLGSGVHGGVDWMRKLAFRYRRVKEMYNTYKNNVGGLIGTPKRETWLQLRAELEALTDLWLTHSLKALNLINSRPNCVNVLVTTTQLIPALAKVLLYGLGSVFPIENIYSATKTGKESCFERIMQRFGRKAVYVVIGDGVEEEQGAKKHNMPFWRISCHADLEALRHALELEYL
Target sequence (Q15475 whole entry, looked up): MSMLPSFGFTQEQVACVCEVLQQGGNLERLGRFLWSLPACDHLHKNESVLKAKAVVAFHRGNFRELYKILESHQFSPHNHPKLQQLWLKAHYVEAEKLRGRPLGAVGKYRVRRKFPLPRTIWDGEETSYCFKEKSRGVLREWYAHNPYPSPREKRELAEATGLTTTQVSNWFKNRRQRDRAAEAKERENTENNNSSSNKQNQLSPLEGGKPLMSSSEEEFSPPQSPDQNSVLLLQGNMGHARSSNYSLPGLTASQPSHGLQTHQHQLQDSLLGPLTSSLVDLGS
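Six1/Eya2 binding was read as AlphaScreen signal after compounds were pinned into GST-Six1 plus His-tagged Eya2 (5X stock 250/500 nM) in pH 8.0 Tris/NaCl/TCEP buffer, beads added, then incubated 1 h, 37 C, dark.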
D2 PAM = potentiates the human D2 dopamine receptor allosterically | P14416 | DiscoveRx D2 beta-arrestin cells, luminescence, 90 min; 100% = 57 uM dopamine signal | potentiation, % (test concentration not listed) | 360,000 tested, 0.23% active | AID 624464; active = potentiation of 50% or more; inconclusive = 30% to 50%; inactive = 30% or less;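 further: compound concentration not given in the record; tested on top of an EC20 dose of dopamine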
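D2 cells co-treated with compound plus 50 nM dopamine (EC20) for 90 min at 37 deg C to detect potentiation. Beta-arrestin recruitment was read as enzyme-fragment luminescence after 1 h at ambient temperature. Full response was set by 57 uM dopamine.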
An asterisk follows results filed as active; u = inconclusive; x = no result given; [ ] = another dose, or the depositor's remark.

| Compound | D2 agonist | gsp antagonist | gsp ag | CtBP-E1A blk | Six1-Eya2 inh | D2 PAM |
| --- | --- | --- | --- | --- | --- | --- |
| CCn1c(NC(=O)c2ccco2)c(-c2ccccc2Cl)c(=O)c2ccccc21 | -0.3 | 6% | -44%[inhibitor] | 0 | 6 | -3 |
| Cc1ccccc1NC(=O)NCCCN1CCCC1 | -3.1 | 8% | -36%[inhibitor] | 4 | 0 | -8 |
| COCCNC(=S)N1CCN(c2ccc(Cl)cc2)CC1 | -2.2 | 7% | 10% | 11 | -1 | -2 |
| CN(C)CCNc1oc(COc2cccc(Cl)c2)nc1C#N | -2.5 | 9% | 9% | 2 | -3 | -17 |
| CC(=O)c1cc(-c2ccccc2)n(CC(=O)Nc2cccc(C)c2)c1C | -1.9 | -1% | -2% | -2 | -2 | -16 |
| O=C(/C=C/c1cccs1)NC1CC1 | 1.9 | 1% | u | x | -3 | 19 |
| Cc1nn(Cc2noc(C(=O)NCc3ccc(F)cc3)n2)c(C)c1Br | -3.9 | 2% | -14%[15.4 µM] | -2 | -2 | 1 |
| COC(=O)C1=C(C)NC2=C(C(=O)CCC2)C1c1cccc(C)n1 (centres undefined) | 0.7 | 7% | u | 0 | 1 | -5 |
| O=C(CSc1n[nH]c(=O)[nH]c1=O)Nc1ccc2c(c1)C(=O)c1ccccc1C2=O | 3.2 | -3% | 22% | -85* | -72* | 4 |
| COc1ccc(CNC(=O)c2ccc(-n3cncn3)c3ccoc23)cc1OC | 5.7 | x | x | -6 | -7 | 6 |
| CCOc1ccc(CCNC(=O)COC(=O)c2c(OC)cccc2OC)cc1OCC | -3.0 | 1% | u | -1 | 0 | -1 |
| O=c1c2c3c(sc2n(CCN2CCOCC2)c(=O)n1Cc1ccco1)CCCCC3 | -2.1 | -4% | 12% | u | -23 | -23 |
| CC(=O)c1ccc(NC(=O)Cn2c(=O)oc3ccccc32)cc1 | 0.9 | -7% | 30% | 8 | 2 | 2 |
| Cc1ccc(Oc2ncc(CN3CC(C)OC(C)C3)s2)cc1 (centres undefined) | -1.0 | -5% | -4% | 2 | -1 | -28 |
| Nc1[nH]ncc1-c1ccc(F)cc1 | -4.3 | 11% | u | -17 | 9 | -3 |
| Cn1c(C(=O)N2CCC(C(=O)N3CCN(Cc4ccc5c(c4)OCO5)CC3)CC2)cc2sccc21 | -1.8 | u | -19% | -19 | -7 | -4 |
| O=C1NC2(CCCCC2)N=C1c1ccc(F)cc1 | -2.8 | 9% | -15% | 14 | 5 | -7 |
| CCCCN1C(C(=O)Nc2cc(C)on2)=C(O)c2ccccc2S1(=O)=O | -3.2 | -11% | 17%[15.4 µM] | -13 | -10 | -2 |
| CSc1ccccc1OCc1cc(C(=O)N2CCCC(C)C2)no1 (centres undefined) | -1.5 | -3% | -16% | -4 | -1 | 4 |
| CC(C)Oc1ccc(N2CC(C(=O)Nc3ccc4c(c3)OCO4)CC2=O)cc1 (centres undefined) | -1.3 | -3% | -53%[inhibitor] | 0 | -4 | 0 |
| CC(=O)Nc1ccc(NC(=O)CCOc2ccccc2C)cc1 | 10 | 5% | -6% | 2 | 9 | -6 |
| O=[N+]([O-])c1ccc(-c2ccc(/C=N/c3c(-c4ccco4)nc4ccccn34)o2)cc1 | 5.8 | -25% | -3% | -13 | -28 | 12 |
| Cc1cc(C(F)(F)F)nc2c(Cl)c(C(C)(C)C)nn12 | -7.4 | 2% | 4%[15.4 µM] | 4 | 7 | -2 |
| O=C(Nc1ccc(F)cc1F)N1CCCCC1c1cccnc1 (centres undefined) | 0.3 | 3% | 3% | 9 | 3 | -1 |
| CS(=O)(=O)c1ccc2nc(NC(=O)CN3CCC(Cc4ccccc4)CC3)sc2c1 | -2.7 | -9% | -13% | 0 | 20 | -10 |

Whole records as entered above. Screens in order: D2 agonist, gsp antagonist, gsp ag, CtBP-E1A blk, Six1-Eya2 inh, D2 PAM
O=c1c2c3c(sc2n(CCN2CCOCC2)c(=O)n1Cc1ccco1)CCCCC3 in the list: -2.1, -4%, 12%, u, -23, -23
CCn1c(NC(=O)c2ccco2)c(-c2ccccc2Cl)c(=O)c2ccccc21 in the list: -0.3, 6%, -44%[inhibitor], 0, 6, -3

New compounds follow:
| Compound | D2 agonist | gsp antagonist | gsp ag | CtBP-E1A blk | Six1-Eya2 inh | D2 PAM |
| --- | --- | --- | --- | --- | --- | --- |
| CN1OC[C@@H]2CN(C(=O)Cc3ccccc3)[C@H](c3ccccc3Br)C[C@@H]21 | -9.9 | x | -30% | -16 | 0 | -2 |
| N=c1sccn1CC(=O)N1CCc2ccccc21 | -2.7 | 6% | -40%[inhibitor] | 1 | 6 | -42 |
| Cc1ccnc(NC(=O)C2COc3ccccc3O2)c1 (centres undefined) | -2.7 | -25% | 25% | x | 10 | -10 |
| NC(=O)SCC(=O)Nc1ccc(Cl)c(Cl)c1 | -6.6 | 1% | -1% | -2 | -4 | 16 |
| CC(C(=O)NC1CCCC1)N1C(=O)c2cccc3cccc1c23 (centres undefined) | 4.9 | -4% | 1% | 0 | 4 | 0 |
| COc1ccc(CC(=O)OCCc2cc3cc(OC)c(OC)cc3c(=O)o2)cc1 | -1.0 | 3% | x | -9 | -17 | -8 |
| N=c1c(C(=O)NC2CCCCC2)cc2c(=O)n3ccccc3nc2n1Cc1ccc(F)cc1 | -9.5 | 7% | -11% | x | 5 | -10 |
| Fc1ccc(Br)cc1/C=N/N1CCN(c2ccccc2)CC1 | 4.3 | -4% | -1% | -26 | -22 | -4 |
| O=C(O)C1CCCCC1C(=O)Nc1ccc(Cl)cc1 (centres undefined) | -0.9 | -9% | 17% | -14 | 6 | -10 |
| Cc1ccc(-c2nnc(-c3cccc(NC(=O)c4cccs4)c3)o2)cc1 | -1.7 | u | -7% | -15 | -20 | 14 |
| COC(=O)c1c(NC(=O)C2CCCCC2)sc2c1CC(C)(C)NC2(C)C | -2.2 | 10% | -5% | 3 | 3 | -9 |
| CCCOc1ccc(N2C(=O)CC(NCC#N)C2=O)cc1 (centres undefined) | -1.2 | -10% | -3%[15.4 µM] | 7 | 10 | -15 |
| CC(=O)NS(=O)(=O)c1ccc(NC(=O)c2ccc3c(c2)NC(=O)CS3)cc1 | -2.4 | -1% | u | -1 | 3 | -5 |
| COC(=O)CSc1nc(C)c(C)c(C)c1C(N)=O | -4.7 | 5% | -9%[15.4 µM] | 8 | -2 | -2 |
| CC(C)C[C@H](NC(=O)c1[nH]cnc1C(=O)Nc1ccccc1)C(=O)OC(C)(C)C | 0.8 | 0% | 4% | x | 10 | -2 |
| O=C(CC1SC(N2CCOCC2)=NC1=O)Nc1ccc(F)cc1 (centres undefined) | -2.6 | 10% | 3% | 3 | 7 | -44 |
| O=C(CN(C1CCCCC1)S(=O)(=O)c1ccc(Br)cc1)NCc1cccnc1 | -2.6 | 13% | -5%[15.4 µM] | -23 | 2 | -18 |
| COc1ccc(S(=O)(=O)N2CCCCC2)cc1Br | -3.2 | u | -29% | 3 | 4 | -6 |
| Cc1cc(S(=O)(=O)N2CCOCC2)ccc1OCC(=O)N1CCC(C)CC1 | 2.4 | -4% | -6% | 1 | -1 | -2 |
| C#CC(CC)(CC)NC(=O)c1c(C)noc1C | -9.5 | 13% | 7% | 5 | -3 | -6 |
| CCOC(=O)c1cnn(-c2ccccc2)c1NC(=O)CCl | -3.4 | 20% | -3% | 4 | -1 | -2 |
| Cn1cc(S(=O)(=O)CC(=O)Nc2ccc3c(c2)OCCO3)c2ccccc21 | 7.6 | -14% | -28% | -4 | -1 | u |
| CCOC(=O)c1ccc(NC(=S)NCCCN2CCCCC2)cc1 | 1.0 | 13% | 3% | 2 | -1 | -17 |
| COc1cccc(-c2[nH]nc3c2C(c2ccc(C)o2)C(C#N)=C(N)O3)c1 (centres undefined) | -1.4 | 11% | -39%[inhibitor] | -1 | -9 | -15 |
| NC(=O)c1cccc(Nc2nc(C(N)COCc3ccccc3)cs2)n1 (centres undefined) | -4.7 | x | x | u | u | -13 |
| Cc1nnc(SCC(=O)NC(C)(C)C)n1CCc1ccccc1 | -1.9 | 10% | -9% | -1 | -11 | -11 |
| O=C(CNC(=O)c1cccc([N+](=O)[O-])c1)NC1CCCc2ccccc21 (centres undefined) | -4.4 | -12% | -37%[inhibitor] | 6 | 5 | 3 |
| CC(NC(N)=O)C12CC3CC(CC(C3)C1)C2 (centres undefined) | -1.0 | 16% | 3% | 44 | 33 | -7 |
| CC1(C)CC(=O)C=C(c2ccc(COC(=O)c3ccc(-c4ccccc4)cc3)cc2)C1=O | -8.6 | x | -31%[inhibitor] | 6 | -1 | 4 |
| CCN1C(=O)[C@@H]2[C@@H](c3ccc(SC4CCCCC4)c(OC)c3)N3CCCC[C@@]3(C(=O)OC)[C@@H]2C1=O | -1.1 | -10% | 9% | 10 | 3 | 0 |
| COc1ccc(S(=O)(=O)N2CCN(CC(=O)NC3CCCC3)CC2)cc1 | 1.6 | x | 10%[15.4 µM] | 0 | 0 | 4 |
| CCOC(Cn1cc([N+](=O)[O-])c(=O)[nH]c1=O)OCC | -6.2 | 0% | -41%[inhibitor] | -10 | -12 | -5 |
| CNC(=O)c1sc(N2N=C3/C(=C\c4ccccc4)CCCC3C2c2ccccc2)nc1C (centres undefined) | 1.5 | -5% | 22% | -3 | 21 | 9 |
| O=C(/C=C/c1ccccc1[N+](=O)[O-])c1ccccc1Br | 2.6 | x | -24%[15.4 µM] | -9 | 4 | -18 |
| COc1ccc(NC(=O)c2ccc(NC(=O)c3cccs3)cc2)cc1 | -1.6 | 4% | 8% | -4 | 19 | -12 |
| CCOCCCn1c(=NC(=O)c2ccco2)c(C(=O)OCC)cc2c(=O)n3cccc(C)c3nc21 | -2.5 | u | u | x | 1 | -6 |
| O=C(Nc1cc(C(F)(F)F)ccc1Cl)C(=O)N1CCCCC1 | -4.4 | 4% | 10%[15.4 µM] | -3 | -8 | -5 |
| Cc1sc(NC(=O)Cc2ccc3c(c2)OCO3)nc1-c1ccc2c(c1)CCN2C(=O)c1ccc(F)cc1 | -7.5 | -1% | 4%[15.4 µM] | 0 | -12 | -4 |
| O=C(Cc1c(F)cccc1Cl)N1CCN(C(=O)c2ccco2)CC1 | -2.5 | -11% | -15% | 5 | -1 | 4 |
| c1csc(-c2nc3c4ccccc4c4ccccc4c3[nH]2)c1 | 2.1 | u | 7% | -22 | u | -12 |
| Cc1ccc(SCC(=O)NC(=O)c2ccccc2Br)c(C)c1 | 0.1 | -9% | 1% | 7 | 1 | -10 |
| Cc1cc(=O)[nH]c(SCC(=O)Nc2ccc(F)cc2)c1C#N | -0.8 | -16% | 1%[15.4 µM] | -20 | 1 | 0 |
| CC(C)(C)c1cc(NCc2ccccn2)n2ncc(-c3ccccc3)c2n1 | -1.4 | -21% | 11%[15.4 µM] | 19 | 28 | -11 |
| COc1ccc(CN(C)C(=O)CCl)cc1 | -5.4 | -6% | 31% | x | -9 | 8 |
| CC(C)NC(=S)Nc1ccc(Oc2ccccc2)cc1 | 1.4 | 1% | -32%[inhibitor] | -2 | -9 | -26 |

Assay outcomes (PubChem BioAssay)
